High-throughput results (PubChem)
Prx2 Sm inh = blocks S. mansoni peroxiredoxin 2 enzymatic activity. S. mansoni Prx2 activity coupled to TGR/GSH (TGR is thioredoxin glutathione reductase), NADPH fluorescence loss, qHTS; some inactives read as strong as hits. Potency, µM. 65,000 compounds, 0.07% hits. AID 448; active means full or partial inhibition curve with a strong effect at the top dose; inconclusive means weaker partial or single-point curve; inactive means no accepted curve; further: series up to 57 µM; many of its hits are not listed in these tables
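Prx2 activity was followed as the loss of NADPH fluorescence (ex 365/em 450 nm), read every 30 sec for 8 min after H2O2 start. The enzyme mix (50 nM Prx2, 25 nM TGR, GSH, NADPH; pH 7.4 phosphate buffer) was incubated with compound for 15 min at room temperature first.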
Anthrax LT inh = blocks cellular internalization of anthrax lethal toxin. Cells, anthrax lethal toxin internalization, FRET ratio (460/530). Potency, µM (doses to about 40 µM), without a hit: at the highest dose activity change, negative = inhibition, actives largely listed as inhibitors. 70,000 compounds, 0.67% hits; active = well fitted falling ratio curve with the 530 nm signal flat; inconclusive = other ratio curves, or a change in one channel alone; inactive = flat curves in the ratio and both channels; the % refers to the ratio; further: on the % scale 0 is the no-effect control and ±100 the full control effect; nearly all actives have a fitted effect of over 50% in size; tested in ME-180 cells; beta-lactamase reporter
An asterisk follows results filed as active; ? = inconclusive; . = no result given; & = joins results of further samples; [ ] = another dose, or the depositor's remark. Potency means the concentration at half of the fitted maximal effect.

item | smiles | Prx2 Sm inh | Anthrax LT inh
1 | CCc1cc(C(=O)N2CCOCC2)c(NC2=NS(=O)(=O)c3ccccc32)s1 | >57 | 18.8%
2 | CN(C)C(=O)c1ccc(-c2nc(Nc3ccc(F)cc3)c3ccccc3n2)cc1 | >57 | -5.7%
3 | COc1ccc(N2CCN(C(=O)c3ccc(NS(=O)(=O)c4ccccc4)cc3)CC2)cc1 | >57 | -10.4%
4 | COc1cccc2cc(C(=O)Nc3cccnc3N3CCOCC3)c(=O)oc12 | >57 | -6.7%
5 | O=c1c(-c2cccs2)nc2cnc(N3CCOCC3)nc2n1CCc1ccccc1 | >57 | ?
6 | O=C(O)c1cc2cc(Cl)cc(Cl)c2oc1=O | >57 | -15.7%
7 | COc1ccc(-c2nnn(CC(=O)N(CC(=O)NCCC(C)C)c3ccccc3)n2)cc1OC | >57 | -8.6%
8 | Cc1nnc(SCC(=O)c2ccc(S(=O)(=O)N3CCOCC3)cc2)n1-c1ccccc1 | >57 | -9.2%
9 | O=C(O)C1CC(=O)N(C2CCCCCC2)C1 (configuration not stated) | >57 | 4.0%
10 | NC(Cc1ccccc1)=NCC(=O)O | >57 | -3.7%[8 µM]
11 | COc1ccccc1CNc1ccnc(-c2c(C)noc2C)n1 | >57 | -3.4%
12 | CCOc1ccccc1C1C(C(=O)OC)=C(N)OC2=C1C(=O)CCC2 (configuration not stated) | >57 | 2.7%
13 | CC(=O)Nc1ccc(S(=O)(=O)N2CCSC2c2ccc(Cl)cc2)cc1 (configuration not stated) | >57 | -26.4%
14 | Cc1cccc(CNc2ncnc3ccc(-c4ccccc4CN(C)C)cc23)c1 | >57 | -18.5%
15 | Cc1cc(=O)[nH]c(S/C=C/c2ccccc2)n1 | >57 | 18.7%
16 | CC(C)CCN1CC(C(=O)NCc2ccc(F)cc2)CC1=O (configuration not stated) | >57 | ?
17 | Cc1cc(N)n(-c2ccccc2)n1 | . | 7.0%
18 | Nc1nonc1-c1noc(CCCOc2ccc(Cl)cc2Cl)n1 | >57 | ?
19 | COc1ccccc1-c1nc(SCc2ccccn2)n[nH]1 | >57 | -13.0%
20 | CC(C)CC(C(=O)NCc1ccccn1)N1C(=O)c2ccccc2C1=O (configuration not stated) | >57 | 6.8%
21 | COc1cc(OC)c(C2CC(=O)N3CN(c4ccccc4)CSC3=C2C#N)cc1OC (configuration not stated) | >57 | ?
22 | CCOC(=O)OCC1OC(c2ccc(C(C)=O)cc2)C=CC1OC(=O)OCC (configuration not stated) | . | -7.4%[8 µM]
23 | CS(=O)(=O)NCCOc1ccc(S(=O)(=O)N2CCCc3ccccc32)cc1 | >57 | -24.2%
24 | CN1c2cccc3cccc(c23)N(C)C1(C)C | >57 | 6.9%
25 | Cc1oc2c(CN(C)C)c(O)ccc2c(=O)c1-c1ccc2ccccc2n1 | >57 | 0.8%
26 | OCCN1CCN(Cc2cccc(Oc3ccc(Cl)cc3)c2)CC1 | >57 | -8.7%
27 | Cc1ccc(N2C(=O)NC3(CCCCC3)C2=O)cc1 | >57 | -6.5%
28 | COc1ccccc1N1CCN(Cc2nnnn2CCc2ccccc2)CC1 | >57 | -27.2%
29 | O=c1[nH][nH]c(=O)c2cc([N+](=O)[O-])ccc12 | . | 5.8%
30 | CN(C)c1nc(-c2cccnc2)nc2ccccc12 | >57 | 1.0%

In another format: entries from further up
10. NC(Cc1ccccc1)=NCC(=O)O
  Prx2 Sm inh = >57
  Anthrax LT inh = -3.7%[8 µM]

29. O=c1[nH][nH]c(=O)c2cc([N+](=O)[O-])ccc12
  Prx2 Sm inh = .
  Anthrax LT inh = 5.8%

(further entries)
item | smiles | Prx2 Sm inh | Anthrax LT inh
31 | CCN(CC(=O)NCCc1ccc(S(N)(=O)=O)cc1)Cc1nc2ccccc2c(=O)[nH]1 | >57 | -1.5%
32 | O=C(NCc1ccco1)c1cc(-c2cccnc2)nc2ccc(Cl)cc12 | >57 | -22.5%
33 | CC1CCN(CCC(=O)Nc2ccc(Br)cc2)CC1 | >57 | -22.7%
34 | Cc1ccccc1NS(=O)(=O)c1cccc(-c2nnc(-c3ccccc3)o2)c1 | . | ?
35 | CCN(CC)S(=O)(=O)c1ccc(NC(=O)CN(c2ccc(OC)cc2OC)S(C)(=O)=O)cc1 | >57 | -20.5%
36 | O=C(CN1C(=O)c2ccccc2S1(=O)=O)Nc1ccc(S(=O)(=O)N2CCCCCC2)cc1 | >57 | -5.7%
37 | COc1ccccc1N1CCN(C(CNS(=O)(=O)c2cc(F)ccc2F)c2cccnc2)CC1 (configuration not stated) | ? | 3.7%
38 | CCCCN(C)Cc1c(C)[nH]c2ccc(OCC)cc2c1=O | >57 | -4.4%
39 | COc1ccc(Cn2nnnc2C(c2ccc(C)cc2)N2CCN(C3CCCC3)CC2)cc1 (configuration not stated) | >57 | -6.5%
40 | O=C(Cn1nc(-c2ccc3c(c2)OCCO3)ccc1=O)Nc1ccc(N2CCOCC2)cc1 | >57 | 2.1%
41 | COc1ccc(S(=O)(=O)N2CCN(c3nc4ccccc4nc3-n3nc(C)cc3C)CC2)cc1 | >57 | -16.8%
42 | Cc1ncsc1CCSc1nc2ccccc2c(=O)n1C | >57 | -11.3%
43 | CC(C)c1ccc(NC(=O)C(c2ccccc2)N2CCN(C=O)CC2)cc1 (configuration not stated) | >57 | 8.3%
44 | O=C(O)c1ccc(N2C(=O)CC(Cc3ccccc3)C2=O)cc1 (configuration not stated) | . | -11.3%
45 | CCOC(=O)c1ccccc1NC(=O)Cn1c(-c2nonc2N)nc2ccccc21 | >57 | ?
46 | O=c1cc(CSc2nnc(-c3cccs3)n2Cc2ccccc2)nc2sc3ccccc3n12 | >57 | ?
47 | Cc1nc2c(-c3ccccc3)c(C)nn2c(C)c1CCC(=O)O | >57 | -0.4%
48 | Cc1ccccc1-n1c(=O)cc(N2CCC3(CC2)OCCO3)[nH]c1=O | >57 | ?
49 | O=C(c1cccc(F)c1)N1CCC[C@@]2(CCN(C(c3ccccc3)c3ccccc3)C2)C1 | >57 | 11.0%
50 | NC(=O)CSc1nc2c(sc3ccccc32)c(=O)n1CCCN1CCOCC1 | >57 | 2.3%
51 | Cc1noc(NS(=O)(=O)c2ccc(NC(=O)c3ccc(Br)o3)cc2)c1C | >57 | ?
52 | COc1ccc(C2C3=C(CCCC3=O)Nc3nc(C(F)(F)F)nn32)cc1OC (configuration not stated) | >57 | 3.1%
53 | O=C(NC1CCCC1)c1cc(-c2cccs2)on1 | >57 | -2.7%
54 | CCOC(=O)CC1C(=O)NCCN1C(=O)COc1ccc(Br)cc1C (configuration not stated) | >57 | -0.4%
55 | CC(=O)c1ccccc1Oc1nc(CN2CCOCC2)nc2scc(-c3cccs3)c12 | >57 | -22.7%
56 | Cc1sc2nc(CN(Cc3cccs3)C(=O)NC3CCCCC3)[nH]c(=O)c2c1C | >57 | ?
57 | Fc1cccc2sc(N3CCCCC3)nc12 | >57 | -7.6%
58 | O=C(c1cc2ccccc2o1)N1CCN=C1SCc1cccc(F)c1 | >57 | -0.1%
59 | O=C(O)CNc1ccc(C(=O)O)cc1 | >57 | -9.2%[8 µM]
60 | COCCNC(=O)CN1CCC(NC(=O)Nc2ccccc2)CC1 | >57 | 10.7%
61 | COc1ccc2c3c([nH]c2c1)C(C)=NCC3 | >57&>57 | ?
62 | O=C(CSc1ncn(-c2ccccc2)n1)N1CCN(c2ccccc2)CC1 | >57 | 7.3%
63 | Cc1ccc(S(=O)(=O)NC(=O)Nc2ncn[nH]2)cc1 | >57 | 3.2%[8 µM]
64 | CC(C)CC(/C(O)=C(\C#N)c1nc2ccccc2[nH]1)N1C(=O)c2ccccc2C1=O (configuration not stated) | . | ?
65 | C/C(Cl)=C/Cn1c(NCCN(C)C)nc2c1c(=O)n(C)c(=O)n2C | >57 | -2.2%
66 | COc1ccc(CN[C@H](C)C(=O)O)cc1 | >57 | -4.7%[8 µM]
67 | Clc1ccc(-c2nnc(SCc3cn4ccsc4n3)n2CC2CCCO2)cc1 (configuration not stated) | >57 | -3.4%
68 | CCOC(=O)C1=C(C)OC(N)=C(C#N)C12C(=O)Nc1ccc(C)cc12 (configuration not stated) | >57 | 0.3%
69 | CC(=O)NC(CC(=O)Nc1ccc(S(=O)(=O)N2CCCC2)cc1)c1ccccc1 (configuration not stated) | >57 | 9.5%
70 | Nc1ncnc2nn([C@H]3O[C@@H](CO)[C@@H](O)[C@H]3O)nc12 | >57 | -9.4%[8 µM]
71 | NC(=O)C1CCCN(C(=O)NC2CCCCC2)C1 (configuration not stated) | >57 | .
72 | O=S(=O)(Nc1ccc2c(c1)OCCO2)c1cccc2nsnc12 | >57 | 2.9%
73 | C[Si](C)(C)Cl | . | 2.3%
74 | CCCn1c(=N)n(CC(=O)C(C)(C)C)c2ccccc21 | >57 | -10.0%
75 | CC(=O)NC1(C2CCCCC2=O)CCCCC1 (configuration not stated) | >57 | -16.4%
76 | CC(=O)NC(Cc1c[nH]c2ccccc12)C(=O)Nc1ccc2c(c1)OCO2 (configuration not stated) | >57 | 2.9%
77 | COc1ccc(NC(=O)Nc2nccs2)cc1 | >57 | -16.9%
78 | CCCOc1ccc(-c2nc(C#N)c(N3CCN(CC)CC3)o2)cc1 | >57 | -8.1%
79 | CCCOc1cccc(C2/C(=C(/O)c3ccncc3)C(=O)C(=O)N2CCCN(C)C)c1 (configuration not stated) | >57 | 1.1%
80 | Cc1ccc(S(=O)(=O)N2CCOCC2)cc1C(=O)OCC(=O)N1CCc2ccccc2C1 | >57 | 2.3%
81 | CC(C)=CCC/C(C)=C/CO | >57 | -0.6%[8 µM]
82 | CC(=O)Nc1ccccc1C(=O)N1CC(C)OC(C)C1 (configuration not stated) | >57 | 1.4%
83 | CCC(=O)N1CCc2cc(S(=O)(=O)CCC(=O)Nc3c(C)n(C)n(-c4ccccc4)c3=O)ccc21 | >57 | 8.4%
84 | CCN=C1Cn2c(nc3scc(-c4ccccc4)c3c2=O)CN1CC | >57 | 1.0%
85 | CCCCCCCCCCCCC/C=C\[C@@H](O)[C@@H](N)CO | >57 | ?
86 | Nc1ccc(S(=O)(=O)NCc2nccs2)cc1 | >57 | -9.9%[8 µM]
87 | CC(=N)C1=C(O)CC(C)(C)CC1=O | >57 | 4.7%
88 | C/C=C/Cn1c(N2CCCCCC2)nc2c1c(=O)[nH]c(=O)n2C | >57 | -4.4%
89 | O=C1CC(N2CCN(S(=O)(=O)c3ccc(Cl)cc3)CC2)C(=O)N1CCc1ccccc1 (configuration not stated) | >57 | -14.7%
90 | CCCCN1CCC(C#N)(Nc2ccccc2)CC1 | >57 | 0.4%

Next section
item | smiles | Prx2 Sm inh | Anthrax LT inh
91 | CO/N=C\[C@@H](OC)[C@H](C)/C=C\CC(=O)OC | . | -10.1%[8 µM]
92 | Cc1c(CNC(=O)c2cnn3c2NC(c2ccc(Br)cc2)CC3C(F)(F)F)cnn1C (configuration not stated) | >57 | .
93 | Cc1cc(C)cc(C#CC2C=CC(Oc3ccc(C4CCCC4)cc3)C(CO)O2)c1 (configuration not stated) | . | -16.6%[8 µM]
94 | CCn1c(=O)[nH]c2cc(C(=O)N3CCN(c4ccccc4)CC3)ccc2c1=O | >57 | -3.2%
95 | CN(C)c1ccc(S(=O)(=O)c2ccc(Cl)cc2)cc1 | . | -10.1%
96 | COc1ccc(C(=O)Nc2oc(-c3ccccc3)c(-c3ccccc3)c2C#N)cc1OC | >57 | ?
97 | O=C1CCCC2=C1C(c1ccncc1)c1c(nc(SCc3ccccc3Cl)[nH]c1=O)N2 (configuration not stated) | . | 21.2%
98 | CCOC(=O)c1sc2nc(C)n(CC(=O)NCC3CCCO3)c(=O)c2c1C (configuration not stated) | >57 | 7.3%
99 | Cc1noc(C)c1COC(=O)C1(c2cccc(F)c2)CCCC1 | >57 | ?
100 | O=C(CCn1c(=O)c2ccccc2n(Cc2cccnc2)c1=O)NCc1ccc2c(c1)OCO2 | >57 | -0.2%
101 | N#CC1=C(N)Oc2ccccc2C12C(=O)Nc1n[nH]c(-c3ccccc3)c12 (configuration not stated) | >57 | ?
102 | COC(=O)c1ccccc1NC(=O)CN(c1ccccc1)S(=O)(=O)N(C)C | >57 | -17.0%
103 | COc1ccc(C2C(C(=O)N3CCCC3)c3cc(OC)c(OC)cc3C(=O)N2C)cc1OC (configuration not stated) | >57 | -10.7%
104 | CC(O)CN(Cc1cccc(Cl)c1)CC(C)O (configuration not stated) | >57 | -11.2%
105 | CCn1nnnc1NCc1cccn1C | >57 | ?
106 | O=C(NCC1CCCO1)c1ccc(CS(=O)(=O)Cc2ccc(F)cc2)o1 (configuration not stated) | >57 | 0.1%
107 | CCN1CCN(C(c2ccc(OC)c(OC)c2)c2nnnn2C(C)(C)C)CC1 (configuration not stated) | >57 | 15.9%
108 | CCCCSc1nc(N)c(NC(=O)c2ccco2)c(=O)[nH]1 | >57 | 13.1%
109 | CC1CCCCC1NC(=O)Cn1c(CN2CCCCC2)nc2ccccc2c1=O (configuration not stated) | >57 | ?
110 | CCc1c(C)sc(NC(=O)c2ccco2)c1C(=O)N1CCOCC1 | >57 | -13.6%
111 | Cc1nn(-c2ccccc2)c2sc(C(=O)N3CCOCC3)cc12 | >57 | 3.3%
112 | Cn1c(-c2ccc(F)cc2)cnc1SCC(=O)Nc1ccccc1N1CCOCC1 | >57 | -14.7%

An excerpt, so the mix of outcomes need not match the whole.
